# From PubChem BioAssay
# Arbovirus inh – antivirals against arbovirus infection, primary screen, cell-based, full library, 10K replicate subset; arbovirus infection cell-based antiviral screen; inhibition, % at 10 µM; hit rate 0.37% among 200,000;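 active = inhibition from about 30%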;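 also: bluetongue infection of BSR cells; cell survival read as ATP light after 72 h; 0% = infected wells without compound and 100% = uninfected wells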
# YopH inh – YopH tyrosine phosphatase inhibitors, primary screen, biochemical, fluorescence Ex485/Em525; hit rate 0.16% among 140,000; inhibition, %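 (about 10 µM by stock and volumes)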; YopH tyrosine phosphatase [Yersinia enterocolitica]; AID 898, 2007;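 active = inhibition of 50% or more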;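 also: controls were vehicle for no effect and minimum signal wells for full effect; inactives centre near -20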
# Mtb betalactam – beta-lactam sensitization of Mtb H37Rv, H37Rv; M. tuberculosis H37Rv growth with meropenem, percent inhibition; hits of this screen are not shown here; inhibition, % at 25 µM; hit rate 0.27% among 330,000; AID 434955, 2010;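 active = about 74% or more and at least 40 points above the plate without the antibiotic, then above 30% in a dose series; inconclusive = first-round hits that could not be retested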;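 also: growth measured after seven days incubation then overnight dye step; 0% = bacteria only wells and 100% = bacteria with antibiotic; twin plates without the antibiotic show which effects depend on it; some results filed as inactive read as strong as hits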
# RecA splice inh – Mtb RecA intein splicing inhibitors, primary screen, biochemical, fluorescence, HTS | Protein RecA (Mycobacterium tuberculosis (strain ATCC 25618 / H37Rv)), P9WHJ3 | cell-free RecA intein splicing | inhibition, %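 (about 9 µM by stock and volumes)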 | hit rate 0.75% among 290,000 | AID 2221, 2009; in the data active = inhibition above about 30%; inconclusive = no clear call, values can overlap the other calls;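 also: 0% = vehicle wells and 100% = reference inhibitor control wells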
# Target sequence (P9WHJ3 whole entry, looked up, canonical isoform): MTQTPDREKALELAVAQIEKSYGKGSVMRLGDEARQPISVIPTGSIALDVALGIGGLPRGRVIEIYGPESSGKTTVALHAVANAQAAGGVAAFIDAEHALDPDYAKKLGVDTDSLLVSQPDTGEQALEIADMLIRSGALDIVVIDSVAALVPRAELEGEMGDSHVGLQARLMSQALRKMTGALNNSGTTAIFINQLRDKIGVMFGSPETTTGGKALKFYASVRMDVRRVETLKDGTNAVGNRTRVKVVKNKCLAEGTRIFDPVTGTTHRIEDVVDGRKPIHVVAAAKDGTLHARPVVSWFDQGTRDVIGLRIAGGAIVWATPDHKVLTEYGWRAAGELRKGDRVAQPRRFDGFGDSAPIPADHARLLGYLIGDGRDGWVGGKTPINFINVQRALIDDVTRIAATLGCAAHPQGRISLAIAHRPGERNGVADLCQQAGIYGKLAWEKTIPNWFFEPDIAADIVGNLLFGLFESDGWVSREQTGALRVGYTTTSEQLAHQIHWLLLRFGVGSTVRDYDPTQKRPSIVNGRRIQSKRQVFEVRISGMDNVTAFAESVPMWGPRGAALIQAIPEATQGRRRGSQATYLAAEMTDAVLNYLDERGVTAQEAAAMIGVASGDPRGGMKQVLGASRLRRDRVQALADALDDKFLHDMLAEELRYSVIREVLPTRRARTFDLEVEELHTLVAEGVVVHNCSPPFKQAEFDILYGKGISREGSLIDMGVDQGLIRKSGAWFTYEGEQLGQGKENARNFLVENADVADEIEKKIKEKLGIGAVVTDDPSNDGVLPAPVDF
# Mtb growth – M. tuberculosis H37Rv growth inhibitors, H37Rv strain (AID 1626). M. tuberculosis H37Rv growth inhibition; higher % means a stronger effect. inhibition, % at 10 µM; hits with a dose series show IC50 in µM. hit rate 0.95% among 220,000;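 active = confirmed in a dose series; inconclusive = inhibition above 80% but not taken into the dose series; inactive = below 80% or under 30% at every dose of the series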;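 also: bacteria incubated seven days before Alamar blue readout; 0% = bacteria only wells and 100% = bacteria with antibiotic wells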
# Arbovirus inh repeat – second read-out of Arbovirus inh, no call of its own (marks repeat the call); inhibition, %; measured here: 10K subset replicate screen; many hits read low in the repeat;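 first of two repeat runs on a subset; 0% = infected and 100% = uninfected wells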
# * hit, by the source's call; ? = inconclusive; . = not tested or not shown. Some of the compounds tested; count on the stated rates, not on these rows.
SMILES,Arbovirus inh,YopH inh,Mtb betalactam,RecA splice inh,Mtb growth,others
Cn1c2ccccc2c(=O)c2cc(C#Cc3ccsc3)ccc21,.,.,1,-6.2,.,
O=C(O)c1cccc(S(=O)(=O)N2CCC(n3nnc4cc(C(F)(F)F)ccc43)CC2)c1,.,.,1,-1.5,.,
CSc1nnc([C@@H](N)Cc2c[nH]c3ccccc23)o1,0,.,-6,-1.6,-4%,
CCOC(=O)C1=C(C)NC2=C(C(=O)CC(C)(C)C2)C1c1ccc(N(C)C)cc1 (stereo not drawn),-1,-19,-9,1.9,-6%,
CCOc1ccc(CCNC(=O)c2[nH]c(C)c(C(C)=O)c2CC)cc1OCC,-2,.,-9,0.2,-2%,
CCn1cc(C(=O)N[C@H](C(=O)NCCCOC)C(C)C)c(=O)c2cc3c(cc21)OCO3,.,.,1,-1.0,.,
Cc1nn(CCC#N)c2nc(-c3ccccc3)cc(C(F)(F)F)c12,-3,-23,8,-0.8,-4%,
Cc1ccc(CN2CC34C=CC(O3)C(C(=O)NCc3ccc5c(c3)OCO5)C4C2=O)cc1 (stereo not drawn),1,-38,-3,2.8,-10%,
Cc1ccc(S(=O)(=O)NC2OC(=O)C(Cl)=C2Cl)cc1 (stereo not drawn),8,-21,-2,1.4,55%,Arbovirus inh repeat=3
COc1ccc(C(=O)NNC(=O)CSc2nnc(-c3ccc(O)cc3)n2C)cc1,1,.,16,-1.5,0%,
Cc1cc(NC(=O)CSc2ncn(-c3ccccc3)n2)no1,4,-36,5,1.5,2%,
Cc1ccc(NC2=C(Cl)C(=O)OC2OC(=O)c2ccco2)c(C)c1 (stereo not drawn),0,9,?,.,-4%,
CSc1nc2n(n1)C(c1ccccn1)C1=C(CC(C)(C)CC1=O)N2 (stereo not drawn),2,-13,-6,1.7,-2%,
Cc1cc2ccccc2cc(C)c1=O,-9,-56,-2,-0.6,-3%,
COc1ccc(C(=O)NCC2CCCO2)cc1 (stereo not drawn),3,-4,-7,-2.8,-4%,
O=C(NCc1ccc2c(c1)OCO2)c1cc(-c2ccc(Cl)cc2Cl)on1,-6,-7,-7,-1.0,10%,
CCCS(=O)(=O)c1c(S(=O)(=O)CCC)c2c(C)cccn2c1C(N)=O,1,30,5,-0.2,-7%,
Cc1cc(=O)oc2cc(OCC(=O)N3CCN(c4ccccc4)CC3)c(Cl)cc12,.,.,4,0.5,.,
Cc1ccc(-c2[nH]c3ccccc3c2SCCNC(=O)c2cc3ccccc3oc2=O)cc1,9,-30,0,6.6,?,
CCOCCCNC(=O)c1ccc(N(C)S(=O)(=O)c2ccc(OC)cc2)cc1,-2,-8,?,-1.6,-6%,
O=C(CSC(=S)N1CCCCC1)c1c(F)cccc1F,.,.,10,1.7,3%,
O=C1N=c2ccccc2=C1c1c(O)n(-c2cccc(F)c2)[nH]c1=O,-34,18,-3,-3.4,26%,
Cc1nn(Cc2ccc(C(=O)N3c4ccc(F)cc4CCC3C)o2)c(C)c1Br (stereo not drawn),12,-6,-3,7.2,-3%,
O=C1N(CC(=O)N2CCc3ccccc32)CCN1Cc1ccc(Cl)cc1,-4,-15,7,2.0,4%,
CC(C)Cn1c(SCC(=O)NCCCN2CCCC2=O)nc2ccccc21,.,.,-2,-0.3,.,

# Nothing new here: entries from further up.
SMILES,Arbovirus inh,YopH inh,Mtb betalactam,RecA splice inh,Mtb growth,others
CCOC(=O)C1=C(C)NC2=C(C(=O)CC(C)(C)C2)C1c1ccc(N(C)C)cc1 (stereo not drawn),-1,-19,-9,1.9,-6%,
CCOc1ccc(CCNC(=O)c2[nH]c(C)c(C(C)=O)c2CC)cc1OCC,-2,.,-9,0.2,-2%,

# The listing picks up, starting 2 compounds before the break.
SMILES,Arbovirus inh,YopH inh,Mtb betalactam,RecA splice inh,Mtb growth,others
O=C1N(CC(=O)N2CCc3ccccc32)CCN1Cc1ccc(Cl)cc1,-4,-15,7,2.0,4%,
CC(C)Cn1c(SCC(=O)NCCCN2CCCC2=O)nc2ccccc21,.,.,-2,-0.3,.,
CC(=O)c1cccc(NC(=O)c2cc(Cl)sc2Cl)c1,2,-9,5,-0.8,0%,
Cc1ccc(OCCC(=O)OCC(=O)Nc2cc(C)cc(C)c2)cc1,.,.,-1,2.2,.,
COc1cc2c(cc1NC(=O)CSc1nnc(Cc3cccs3)n1Cc1ccco1)oc1ccccc12,-8,-19,97,-1.2,8%,
Cc1c(Cl)cccc1NC(=O)CSCC(N)=O,10,35,6,1.1,5%,
O=C(/C=C/c1ccco1)Nc1cccnc1Cl,.,.,-8,6.1,-1%,
CC(=O)N1CCN(C(=O)CCc2nc3sc4c(c3c(=O)[nH]2)CCCC4)CC1,-5,-37,?,-4.5,-1%,
CCn1cc(C(=O)N[C@@H](C)C(=O)OC)c(=O)c2cc3c(cc21)OCO3,.,.,?,-1.7,.,
CCCCN(CCCC)S(=O)(=O)c1ccc(NC(=O)CN2CCOCC2)cc1,-8,-5,0,3.5,-5%,
N#Cc1ccc(S(=O)(=O)NCC(=O)OCC(=O)NCCc2ccccc2)cc1,.,.,-6,2.3,.,
Cc1c(C(=O)c2ccc(F)cc2F)c2ccccn2c1CCC#N,.,.,1,-3.0,.,
CSc1nnc(C)c(=O)n1COC(=O)COc1ccc(Cl)cc1Cl,18,.,-12,3.1,-5%,
O=C(NC1CCCCCCC1)c1ccc2c(c1)OCO2,-9,7,-1,1.1,-4%,
N#CCCn1c(SCC(=O)Nc2ccc(N3CCOCC3)cc2)nc2ccccc21,-9,-17,1,-2.5,-1%,
Cc1ccnc(NC(=O)CCC(=O)N(CC(=O)NCc2ccc(F)cc2)CC2CCCO2)c1 (stereo not drawn),.,.,1,-0.1,.,
Cn1c(=O)c2c(nc(SCCNS(=O)(=O)c3ccccc3)n2C)n(C)c1=O,9,-39,-16,1.1,-11%,Arbovirus inh repeat=1
Cc1cc(N2C(=O)c3ccc(C(=O)NCc4ccccc4)cc3C2=O)no1,3,-25,-5,.,-10%,
CNC(=O)CCSSCCC(=O)NC,5,.,-7,-3.9,0%,
COc1ccc(N(C)C(=O)c2ccc3snnc3c2)cc1,2,-10,-3,0.8,-4%,Arbovirus inh repeat=2
CN(c1ccccc1)S(=O)(=O)c1cccc(C(=O)Nc2ccc3c(c2)CCC3)c1,9,-22,3,8.2,15%,
CSC1=NCCN1C(=O)c1ccc2ccccc2c1,.,.,17,2.3,6%,
C/C(=N\OC(=O)c1c(-c2c(F)cccc2Cl)noc1C)c1nccs1,3,.,1,2.9,-1%,
CC(=O)N(c1cccc(C(F)(F)F)c1)c1nc(/C=C/C(=O)O)cs1,.,.,-8,-1.2,3%,
COc1ccc(/C=N/NC(=O)CNC(=O)c2cccs2)cc1,-11,-27,0,-0.7,1%,
CN(CC(=O)Nc1ccc(F)c(F)c1F)C(=O)Cc1ccc2c(c1)OCCO2,.,.,12,-0.4,.,
CCCC1=[N+](CC(=O)c2ccccc2)CCn2c(C)ccc21,-10,1,4,.,-5%,
# (more compounds)
SMILES,Arbovirus inh,YopH inh,Mtb betalactam,RecA splice inh,Mtb growth,others
CN1CCN(C(=S)Nc2cc([N+](=O)[O-])ccc2Cl)CC1,9,-30,-4,.,7%,
CCCCOC(=O)C1=C(C)NC(=O)NC1c1ccc(OC)cc1 (stereo not drawn),.,.,-7,2.0,.,
Cc1ccc(-n2nnnc2C(Cl)c2nnnn2-c2ccc(C)cc2)cc1,-41,-25,.,1.4,3%,
CCCCc1nnc(NC(=O)CCc2ccccc2)s1,.,.,-5,-1.1,.,
CC(=O)Nc1ccc(NC(=O)Cc2sc(C)nc2-c2ccc(C)cc2)cc1,-1,-4,2,1.6,2%,
Cc1c(C)n(C)c2ccc(C(=O)NCCCN3CCN(C)CC3)cc12,.,.,6,2.7,.,
COc1cc(OC)c(OC)cc1CNC(C)C(O)c1ccccc1 (stereo not drawn),6,-47,-6,-0.6,-8%,
Cc1ccc(NC(=O)CC2C(=O)N(Cc3ccccc3)C(=S)N2NC(=O)c2ccccc2)c(C)c1 (stereo not drawn),-2,-17,54,-3.6,39%,
COc1cc(NS(=O)(=O)c2ccc(OC)c(C)c2C)c(OC)cc1Cl,-17,-11,-3,13,18%,
CC(=O)c1ccc(Nc2nc(N3CCOCC3)nc(N3CCOCC3)n2)cc1,.,.,-1,-2.2,.,
Cc1cccc(-n2c3nc(=O)[nH]c(=O)c-3cc3c(C)nn(-c4ccccc4)c32)c1,1,-28,-5,-2.4,-3%,
CC(=O)/C=C1/C(=O)Nc2ccccc21,-6,.,79,62*,0%,
O=C(c1ccc(N2C(=O)CCC2=O)cc1)N1CCOCC1,3,-36,11,0.4,-14%,
O=C(CSc1ccc(-c2cccc([N+](=O)[O-])c2)nn1)NCc1ccccc1,-10,.,-8,2.1,3%,
COc1ccc(-c2noc(C3CCCN(C(=O)Nc4ccccc4)C3)n2)cc1 (stereo not drawn),-4,.,3,4.6,-6%,
Nc1ccc(N=Nc2ccccc2)c(N)n1,-6,-36,2,-0.7,7%,
Cc1ccccc1NC(=O)Nc1ccc2c(c1)CCC2,.,.,-4,0.6,.,
CCOC(=O)NC(=O)/C(N=Nc1cccc(C(F)(F)F)c1)=C(\C)O,9,.,-4,1.1,6%,
Cc1cc(C(=O)N2CCN(c3ncccn3)CC2)sc1-c1ccccc1,.,-15,-2,1.0,5%,
C[C@@H]1CN(C(=O)c2cc(COc3cccc(C(F)(F)F)c3)on2)C[C@H](C)O1,.,.,3,-3.6,.,
CCOC(=O)c1ccc(Oc2cn[nH]c2-c2ccc(OCC(=O)NN)cc2O)cc1,.,.,-1,-1.3,.,
CCS(=O)(=O)c1nc(S(=O)(=O)c2ccc(Cl)cc2)c(N2CCN(CCO)CC2)s1,.,.,1,-8.4,.,
O=C(COC(=O)c1ccccc1OC(F)F)Nc1ccc2[nH]c(=O)[nH]c2c1,.,.,1,-0.7,.,
Cn1c(=O)c2[nH]c(N3CCN(c4cccc(O)c4)CC3)nc2n(C)c1=O,0,.,-1,4.2,-1%,
CN(Cc1ccco1)C(=O)Cn1c(=O)oc2cc(S(=O)(=O)NCc3ccccc3)ccc21,-7,-20,2,-1.8,-1%,
O=C(Cn1c(NCCO)nc2ccccc21)c1ccc(F)cc1,.,.,3,-2.0,.,
CCOC(=O)c1ccc(NC(=O)Cn2nnc(-c3ccccc3F)n2)cc1,14,-15,83,1.2,?,

# By substructure: the entries above containing an aryl thioether with sulfur outside any ring
SMILES,Arbovirus inh,YopH inh,Mtb betalactam,RecA splice inh,Mtb growth,others
CSc1nnc([C@@H](N)Cc2c[nH]c3ccccc23)o1,0,.,-6,-1.6,-4%,
COc1ccc(C(=O)NNC(=O)CSc2nnc(-c3ccc(O)cc3)n2C)cc1,1,.,16,-1.5,0%,
Cc1cc(NC(=O)CSc2ncn(-c3ccccc3)n2)no1,4,-36,5,1.5,2%,
CSc1nc2n(n1)C(c1ccccn1)C1=C(CC(C)(C)CC1=O)N2 (stereo not drawn),2,-13,-6,1.7,-2%,
Cc1ccc(-c2[nH]c3ccccc3c2SCCNC(=O)c2cc3ccccc3oc2=O)cc1,9,-30,0,6.6,?,
CC(C)Cn1c(SCC(=O)NCCCN2CCCC2=O)nc2ccccc21,.,.,-2,-0.3,.,
COc1cc2c(cc1NC(=O)CSc1nnc(Cc3cccs3)n1Cc1ccco1)oc1ccccc12,-8,-19,97,-1.2,8%,
CSc1nnc(C)c(=O)n1COC(=O)COc1ccc(Cl)cc1Cl,18,.,-12,3.1,-5%,
N#CCCn1c(SCC(=O)Nc2ccc(N3CCOCC3)cc2)nc2ccccc21,-9,-17,1,-2.5,-1%,
Cn1c(=O)c2c(nc(SCCNS(=O)(=O)c3ccccc3)n2C)n(C)c1=O,9,-39,-16,1.1,-11%,Arbovirus inh repeat=1
O=C(CSc1ccc(-c2cccc([N+](=O)[O-])c2)nn1)NCc1ccccc1,-10,.,-8,2.1,3%,
